High-throughput results deposited in PubChem BioAssay by ICCB-Longwood Screening Facility, Harvard Medical School.
RVFV N-RNA FP: inhibitors of RVFV nucleoprotein–RNA binding, primary screen, biochemical, fluorescence polarization; P21700; RVFV N-RNA binding; active compounds read low; % bound, % (no concentration beside the values); actives 0.1% (n = 20,000);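 active means between 0 and 58% in either replicate with normal brightness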;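 further: 100 nL library stock added to about 12 µL; 100% = protein and probe without compound and 0% = probe alone; numbers are from one replicate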
Target sequence (P21700 whole entry, looked up): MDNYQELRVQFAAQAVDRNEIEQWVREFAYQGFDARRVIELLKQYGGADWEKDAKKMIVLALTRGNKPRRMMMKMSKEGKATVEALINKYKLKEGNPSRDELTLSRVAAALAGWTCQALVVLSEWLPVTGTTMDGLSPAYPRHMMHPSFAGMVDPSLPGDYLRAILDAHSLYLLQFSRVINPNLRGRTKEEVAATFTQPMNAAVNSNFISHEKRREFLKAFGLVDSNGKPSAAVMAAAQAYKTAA
An asterisk follows results filed as active; & = joins results of further samples. A portion of the library. The share of hits here may be higher or lower than overall.

no.	Compound	RVFV N-RNA FP
1	Cn1cnc2c(NCc3ccccc3)nc(NCCO)nc21	97.8
2	CCSc1nc(NC(C)C)nc(N2CCOCC2)n1	108.1
3	C[C@]12CCC(=O)C=C1C=C[C@@H]1[C@@H]2CC[C@@]2(C)[C@H]1CC[C@@]21CCC(=O)O1	100.1
4	COC(=O)COc1cccc(NC(=O)Cc2cccs2)c1	98.5
5	COc1ccc(C(=O)COc2ncnc3cc(Cl)ccc23)cc1	91.4
6	CC[C@@H](CO)NC(=O)[C@@H]1C=C2c3cccc4c3c(cn4C)C[C@H]2N(C)C1	87.4&93.3
7	COc1ccc(NC(=O)NCc2ccccc2)cc1	89.9
8	O=C(Nc1ccccc1)N1CC=C(c2ccc(F)cc2)CC1	98.4
9	CC(C(=O)Nc1ccc(F)cc1)C1SC(=O)NC1=O (stereo unspecified)	104.1
10	CCC(=O)NC1CC(=O)N(c2cccc(OC)c2)C1 (stereo unspecified)	99.5
11	Cn1c(CSc2nc(N)cc(N)n2)n[nH]c1=S	93.3
12	COCCn1c(C)c(C(=O)O)sc1=S	94.5

Later entries.
no.	Compound	RVFV N-RNA FP
13	COc1ccc(-c2ccc(N)[n+](CCCC(=O)O)n2)cc1	92.4
14	CC(=O)Oc1ccccc1C(=O)NCCC(C)C	94.1
15	CCCNC(=O)Nc1ccc(I)cn1	94.0
16	CCN(c1ccccc1)S(=O)(=O)c1ccc2[nH]c(=O)cc(C)c2c1	87.0
17	CCOC(=O)c1cnc(Nc2ccccc2)nc1C(F)(F)F	94.5
18	O=C(Nc1nccs1)c1ccc(CSc2ccccc2)o1	97.3
19	CCOC(=O)C1=C(c2ccccc2)Nc2ncnn2C1c1ccncc1 (stereo unspecified)	93.2
20	O=C(Nc1ccc(Cl)cc1)NC1CC2CCC1C2 (stereo unspecified)	92.8
21	CN(C(=O)CSc1nnc(N)s1)c1ccccc1	91.0
22	O=C(COc1ccc(-c2ccccc2)cc1)N1CCN(c2ccccc2)CC1	89.7
23	CN1CCN(c2ccccc2NC(=O)c2cc3ccccc3o2)CC1	100.0
24	O=C(CC1CC(=O)Oc2ccccc21)NCc1ccccc1 (stereo unspecified)	97.4

(further entries)
no.	Compound	RVFV N-RNA FP
25	CCOc1ccc(NC(=O)COC)cc1	90.9
26	CC(=O)Nc1ccc(-c2nc3ccccc3[nH]2)cc1	94.9
27	CC(C)C(=O)N1N=C(c2ccco2)CC1c1cn(-c2ccccc2)nc1-c1ccccc1 (stereo unspecified)	87.2
28	CCN(CC)C(=S)NC(=O)Cc1ccccc1	96.5
29	CC1(C)CC(=O)C(=CN2CCN(C(=O)c3ccco3)CC2)C(=O)C1	91.9
30	CCC(=O)ONc1nc(C)cc(C)n1	97.8
31	C#CCOC(=O)Nc1ccc(Oc2ccc(Cl)cc2)nc1	87.2
32	O=C1CCC(=O)N1N1C(=O)c2ccccc2C1=O	96.9
33	Cc1cc(=O)[nH]n(-c2ccccc2)c1=O	96.2
34	CC1(C)C2CCC1(CS(=O)(=O)N1CCCc3ccccc31)C(=O)C2 (stereo unspecified)	100.8
35	NC(Cc1ccc(Cl)cc1)C(=O)O (stereo unspecified)	89.8
36	COC(=O)c1c(N)sc(C(=O)N2CCCC2)c1C	98.5

(further entries)
no.	Compound	RVFV N-RNA FP
37	CCCN(CCC)c1nc(OC)nc(OC)n1	97.3
38	Cc1cc(NC(=O)NN2CCOCC2)nn1-c1c(Cl)cc(Cl)cc1Cl	98.2
39	Cc1ccc(S(=O)(=O)c2nc(C(C)(C)C)oc2N2CCOCC2)cc1	91.7
40	O=C(Nc1n[nH]c(C2CCCCC2)n1)C1CCCCC1	99.2
41	COC(=O)c1ccc(OC(=O)C(C)C)cc1	91.9
42	Cc1noc(C)c1COc1ccc2c(C)cc(=O)oc2c1	98.4
43	Cc1cc(NC(=O)Nc2scc(S(=O)(=O)c3ccc(Cl)cc3)c2C)on1	84.8
44	CCN1CCN(CC(c2ccccc2)c2ccccc2)CC1	99.6
45	COc1cc(Cl)cc(/C=N/n2c(-c3ccc(C)cc3)n[nH]c2=S)c1O	92.2
46	COc1ccc(NC(=O)CN2CCC(C)CC2)cc1	98.9
47	CCCn1c(NCCCN(CC)CC)nc2ccccc21	90.5
48	CCCOc1ccc2cc(S(=O)(=O)N3CCCC3)ccc2c1	96.4

More structures:
no.	Compound	RVFV N-RNA FP
49	COc1ccc(C(=O)N(c2ccccc2)C2C=CS(=O)(=O)C2)cc1 (stereo unspecified)	96.8
50	N#CC(C#N)=Cc1ccc(O)c(O)c1	91.9
51	CC1=NN(c2ccc(Cl)cc2)C(=O)C1CCOC(=O)c1nn(-c2ccccc2)nc1C (stereo unspecified)	96.0
52	CCn1c(O)c(C=NCc2cccs2)c(=O)n(CC)c1=S	89.5
53	CC1(C)O[C@@H]2[C@@H](CO[C@@]3(COS(N)(=O)=O)OC(C)(C)O[C@@H]23)O1	97.2
54	O=C(O)CN(CC(=O)O)c1ccccc1	90.9
55	Cc1[nH]c(=O)[nH]c(=O)c1NC(=O)CC12CC3CC(CC(C3)C1)C2	94.6
56	Cc1csc(NC(=O)CSc2nnc(-c3ccoc3C)o2)n1	95.1
57	CC(Cc1ccccc1)C(N)=O (stereo unspecified)	92.8
58	C/C(=C\c1ccccc1)C(=O)Nc1cc(C)on1	97.7
59	N#CCC(=O)NCC1OCCc2ccccc21 (stereo unspecified)	83.7
60	CCN1C(=O)/C(=C\c2ccco2)C(C(=O)OC)=C1C	99.0

New compounds follow:
no.	Compound	RVFV N-RNA FP
61	CCCn1c(=NC(=O)C2CC2)sc2cc3c(cc21)OCO3	100.6
62	CCN(CC)S(=O)(=O)c1cccc(C(=O)N2CC(O)CC2C(=O)O)c1 (stereo unspecified)	91.1
63	N#C/C(=C\c1ccccc1)C(N)=O	90.1
64	CCC/C(O)=C(\C#N)c1nc2ccccc2[nH]1	100.7
65	CCCCN1C=C(C(=O)OC)C(c2cc(C)ccc2C)C(C(=O)OC)=C1	100.2
66	O=C(Oc1ccc(-c2ccccc2)nn1)c1ccco1	100.0
67	CC(C)Nc1ccc(C(F)(F)F)cn1	98.3
68	Cc1ccc(C)c2[nH]c(=O)c(CCNC(=O)c3ccc(Br)o3)cc12	96.6
69	CC(C)c1ccccc1NC(=O)/C=C/c1ccco1	97.1
70	N#CC1(C#N)C(C(N)=O)C1c1ccccc1 (stereo unspecified)	102.3
71	N#Cc1c(-c2ccncc2)[nH]c(=S)[nH]c1=O	92.0
72	C/C=N/N=C1/NC(=O)C(CC(=O)Nc2cccc(C)c2C)S1 (stereo unspecified)	101.4

Remaining list, next part:
No.	structure	RVFV N-RNA FP
73	O=C(Nc1ccc(Br)cc1)c1ccc(-n2cccn2)cc1	99.1
74	CC(C)=CC(=O)Nc1ccc(S(N)(=O)=O)cc1	90.9
75	O=C1NCCN1CCNS(=O)(=O)c1ccc(S(=O)(=O)c2ccccc2)s1	100.8
76	CC(C)N1CCC(=O)N(c2ccccc2Cl)C1=O	96.1
77	NC(=O)CC[C@H](N)C(=O)O	104.0&98.8
78	Cc1ccsc1C(=CCCN1CCC[C@@H](C(=O)O)C1)c1sccc1C	95.5
79	Cn1nc2c3ccccc3n(Cc3ccc(F)cc3)c2nc1=S	97.2
80	CCN(C(=N)N=C(N)N)c1ccccc1	86.0
81	O=C(CC12CC3CC(CC(C3)C1)C2)n1cccn1	101.3
82	CCc1ccc(OCC(=O)NC(C)C)cc1	90.9
83	NC[C@@H]1O[C@H](c2ccccc2)Cc2c1ccc(O)c2O	90.7
84	COc1cc(C)nc(Oc2ccc(/C=N/O)cc2)n1	97.2
85	Cc1ccc(S(=O)(=O)NCCN2CCOCC2)cc1	95.4
86	CCN(CC)C(=O)Cn1cc(S(=O)(=O)CC(=O)NCCc2ccccc2)c2ccccc21	86.5
87	CCOc1ccc(/C=C2/C(=O)NC(=O)N(C3CCCCC3)C2=O)cc1	92.5
88	CCCCNc1c(Cl)cnn(-c2ccccc2)c1=O	89.1
89	O=C(CSc1nc(Nc2ccccc2)nc(N2CCOCC2)n1)N1CCN(c2ccccc2)CC1	94.6
90	S=C(NCC1CCCO1)Nc1ccc(Cl)cc1 (stereo unspecified)	103.0
91	Cc1cc(=O)[nH]c2sc3c(=O)cc(C(F)(F)F)[nH]c3c12	97.5
92	O=C(CSc1nc2ccccc2o1)OCC(=O)c1ccc(F)cc1	98.8
93	CC(C)(C)C(=O)C(Oc1ccc(Cl)cc1)n1ccnc1 (stereo unspecified)	98.0
94	CN=C1SC(CC(=O)Nc2ccccc2)C(=O)N1C (stereo unspecified)	96.1
95	CCOC(=O)N1CCN(C(=O)CSc2nc(=O)n3ccc(C)cc3n2)CC1	94.7
96	Cn1cc(C(=O)OCC2CCN(CCNS(C)(=O)=O)CC2)c2ccccc21	92.0
97	Cc1nc(Cc2c(Cl)cccc2Cl)[nH]c(=O)c1Cl	107.8
98	O=C1NC23CCCCC2C(c2ccccc2O3)C1C(=O)N1CCOCC1 (stereo unspecified)	107.6
99	O=S1(=O)CC(O)C(S(=O)(=O)c2ccccc2)C1 (stereo unspecified)	89.1
100	CC1CN(C(=O)Cc2csc3nc(-c4ccc(Cl)cc4)cn23)CC(C)O1 (stereo unspecified)	97.0
101	O=C(CSc1ncnc2ccccc12)NCc1ccco1	95.4
102	CN(C)CCN(C)CC1=CCC2CC1C2(C)C (stereo unspecified)	96.6

Rewritten with each value named: 4 of the compounds above.
83: NC[C@@H]1O[C@H](c2ccccc2)Cc2c1ccc(O)c2O
  RVFV N-RNA FP = 90.7
85: Cc1ccc(S(=O)(=O)NCCN2CCOCC2)cc1
  RVFV N-RNA FP = 95.4
88: CCCCNc1c(Cl)cnn(-c2ccccc2)c1=O
  RVFV N-RNA FP = 89.1
73: O=C(Nc1ccc(Br)cc1)c1ccc(-n2cccn2)cc1
  RVFV N-RNA FP = 99.1

An excerpt of these results, with each value named.
[66] O=C(Oc1ccc(-c2ccccc2)nn1)c1ccco1
  RVFV N-RNA FP: 100.0
[67] CC(C)Nc1ccc(C(F)(F)F)cn1
  RVFV N-RNA FP: 98.3

Remaining list, next part.
No.	structure	RVFV N-RNA FP
103	COc1ccc(N/N=C(\C#N)C(=O)NCCc2ccc(OC)c(OC)c2)cc1	94.1
104	NC(=O)COc1ccc(-c2nc3ccccc3s2)cc1	98.2
105	Cc1ccc2c(c1)c1c3n2CCN(S(C)(=O)=O)C3CCC1 (stereo unspecified)	104.0
106	CC(=O)Nc1cccc(/C(C)=N/N=C2/NC(=O)C(CC(=O)Nc3ccc(Cl)cc3)S2)c1 (stereo unspecified)	93.2
107	Cc1noc(-c2ccccc2)c1NC(=O)Nc1ccc2sccc2c1	95.9
108	CCc1ccc(N2CCN(CCNC(=O)Nc3ccccc3)CC2)cc1	94.7
109	CCc1cc(Br)ccc1OCC(=O)O	85.7
110	COc1cc(CNC(C)C)cc(OC)c1	90.9
111	CC(=O)Nc1cccc(Oc2cc(C#N)c(C#N)cc2N2CCCCCC2)c1	100.8
112	CC1(C)C(=O)OC2(c3ccc(Cl)cc3)C1OC(=O)C2(C)C (stereo unspecified)	86.2
113	CC1=C(/C=C/C(C)=C/C=C/C(C)=C/C(=O)O)C(C)(C)CCC1	92.5&95.0&96.8
114	N#Cc1ccc(Cn2cc(C(=O)c3ccccc3)c3ccccc32)cc1	94.5
115	CC(C)(C)NC(=O)c1c(F)cccc1F	113.2
116	CS(=O)(=O)N(CC(=O)Nc1ccc(S(=O)(=O)N2CCCCC2)cc1)c1ccccc1F	100.5
117	CC1CN(S(=O)(=O)c2c[nH]c(=O)[nH]c2=O)CC(C)O1 (stereo unspecified)	95.1
118	COc1ccc(OC)c(NC(=O)c2c(NC(=O)CNCc3ccco3)sc3c2CCC3)c1	100.8
119	CCOC(=O)c1cc2c(=O)n3cccc(C)c3nc2n(C2CCCC2)c1=N	94.3
120	CCN(CC)S(=O)(=O)c1ccc(C(=O)Nc2cc(C)c3c(=O)oc4ccccc4c3n2)cc1	99.7
121	CC12CCC(C(=O)O)(C/C1=N\N)C2(C)C (stereo unspecified)	95.1
122	CCCC1=NN2C(=N)/C(=C/c3ccc(OC(=O)c4cccs4)c(OC)c3)C(=O)N=C2S1	98.2
123	N#Cc1cccnc1N1CCCN(C(=O)Nc2ccccc2)CC1	95.8
124	O=C(O)c1cccnc1SCc1ccc(F)cc1	95.3
125	Nc1nc(COc2ccc3ccccc3c2)cs1	94.6
126	NS(=O)(=O)c1ccc(CNS(=O)(=O)Cc2ccccc2)cc1	94.8
127	CC(C)c1ccc(CNc2nc(N)n(-c3ccccc3)n2)cc1	85.2
128	CC1=CC(=C(C#N)C#N)C=C(C)N1CCc1ccccc1	96.4
129	COc1ccc(C(=O)NCc2ccccc2OC)cc1	99.4
130	O=C(O)c1cc(NC(=O)C2CC2)cc(C(=O)O)c1	99.4
131	Cc1nn(-c2ccccc2)nc1-c1n[nH]c(=S)n1-c1ccc(Cl)cc1	107.3
132	COc1ccc([C@@H]2Sc3ccccc3N(CCN(C)C)C(=O)[C@@H]2OC(C)=O)cc1	92.6&96.0&105.7

More compounds:
No.	structure	RVFV N-RNA FP
133	COc1ccc(OC)c2sc(NC(=O)C3CC3)nc12	95.3
134	O/N=C1\c2ccccc2-c2c(F)c(F)c(F)c(F)c21	91.7
135	CC1CC(C)(C)CC2(C1)NC(=O)N(c1ccccc1)N2 (stereo unspecified)	95.9
136	Nc1ccc(S(=O)(=O)NCCO)cc1	89.6
137	Cn1c([N+](=O)[O-])cc[n+]1C	109.9
138	COCCCn1cnn2c(=O)c3ccccc3nc2c1=O	95.2
139	Cc1cc(C)c(N=C2SCC(=O)N2Cc2ccco2)c(C)c1	97.8
140	CC1CC(=O)C2=C(C1)OC(N)=C(C#N)C21C(=O)Nc2ccccc21 (stereo unspecified)	95.7
141	CSc1nnnn1-c1cccc(O)c1	95.6
142	NC(CCP(=O)(O)O)C(=O)O (stereo unspecified)	96.3
143	Cc1cccc(COn2c(=O)c[n+]([O-])c3ccccc32)c1	101.4
144	COC(=O)c1cccc(-c2ccc(/C=C(/C#N)c3ccc(Cl)cc3)o2)c1	99.9
145	CN(C(=O)Cc1ccc(Br)cc1)c1ccccc1	94.7
146	Cc1cc(=O)[nH]c(SCCC(=O)O)n1	92.0
